GCN5L2 inh: blocks human GCN5L2 histone acetyltransferase; GCN5L2 HAT assay, ThioGlo1 CoA-SH fluorescence; Potency, µM (top dose mostly 58.9 µM), without a hit: top-dose activity change, negative = inhibition, actives largely listed as inhibitors; 0.21% of 390,000 active; AID 504327
Target sequence (Q92830 whole entry, looked up): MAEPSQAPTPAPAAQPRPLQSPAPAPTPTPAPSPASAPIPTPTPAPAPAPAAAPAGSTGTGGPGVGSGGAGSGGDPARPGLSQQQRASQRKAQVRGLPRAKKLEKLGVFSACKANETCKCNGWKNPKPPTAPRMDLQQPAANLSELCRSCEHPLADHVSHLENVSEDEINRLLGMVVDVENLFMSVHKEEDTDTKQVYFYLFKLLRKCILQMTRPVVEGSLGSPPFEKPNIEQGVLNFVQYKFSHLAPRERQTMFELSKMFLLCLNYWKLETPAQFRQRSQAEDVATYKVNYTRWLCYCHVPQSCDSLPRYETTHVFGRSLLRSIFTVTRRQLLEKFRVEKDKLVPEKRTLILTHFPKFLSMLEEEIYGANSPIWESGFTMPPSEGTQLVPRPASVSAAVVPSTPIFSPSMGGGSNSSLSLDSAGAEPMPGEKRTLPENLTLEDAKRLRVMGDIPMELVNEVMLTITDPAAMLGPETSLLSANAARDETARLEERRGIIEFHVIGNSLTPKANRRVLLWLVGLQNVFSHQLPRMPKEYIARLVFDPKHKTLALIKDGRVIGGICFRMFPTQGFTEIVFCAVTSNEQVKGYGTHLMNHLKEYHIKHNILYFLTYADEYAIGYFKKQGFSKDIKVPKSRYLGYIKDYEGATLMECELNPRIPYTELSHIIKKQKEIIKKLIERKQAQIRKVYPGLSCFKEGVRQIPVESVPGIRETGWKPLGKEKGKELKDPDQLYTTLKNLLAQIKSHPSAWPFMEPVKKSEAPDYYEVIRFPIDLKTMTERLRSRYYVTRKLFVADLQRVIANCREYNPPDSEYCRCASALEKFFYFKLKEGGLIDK
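Enzyme at 20nM final was mixed with library compounds for 15 min at room temperature. Peptide H3(1-25) at 75uM, acetyl-CoA at 70uM and ThioGlo1 at 50uM were then added. Plates were read immediately and after 20 min (Ex340nm/Em540nm).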
TDP1 cell CPT: DT40-hTDP1 cell growth loss with CPT. Potency, µM (highest dose often 46.2 µM), for the others: at the highest dose activity change, negative = growth inhibition, usual class: inhibitors. 12% of 420,000 active. AID 686979. chicken DT40 Tdp1-/-;hTDP1 cells + 20 nM CPT, ATP luminescence, 48 h; further: nearly all actives have a fitted effect of over 55% in size
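Cell growth measured by CellTiter-Glo luminescence after a minimum 48 h, 37 C compound exposure with 20 nM CPT in Tdp1-knockout DT40 cells stably expressing hTDP1, seeded 400/well; qHTS titration format.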
* = called active by the depositor; ? = inconclusive; [ ] = dose if it differs, or a comment. The call rests on the fitted dose curve; in most records, active means well fitted curve in the direction sought with a large enough effect; inconclusive means small, poorly fitted or top-dose-only effect, or another doubt; inactive means no such curve, though single readings can be large; an effect the other way counts as inactive or inconclusive. On the % scale 0 is the no-effect control and ±100 the full control effect; potency means the concentration at half of the fitted maximal effect. Only part of the results is shown; most or all hits stand in other tables.

SMILES	GCN5L2 inh	TDP1 cell CPT
O=C(N/N=C/c1ccco1)c1cccc([N+](=O)[O-])c1	-4%	-2%
COc1cc(/C=C/C(=O)OCC(=O)NCc2cccs2)ccc1OC(F)F	-4%	-7%
O=C(c1ccco1)N1CCN(C(=O)C2CCN(S(=O)(=O)Cc3ccccc3)CC2)CC1	-2%	-14%
CCOC(=O)C(/C=C(\C#N)C(=O)OCC)=C(/N)N1CCN(c2ccccc2)CC1	1%	-24%
Cc1onc(-c2ccccc2Cl)c1C(=O)Nc1cccc(-c2nc3ncccn3c2C)c1	-23%	?
COc1ccc(NC(=O)c2ccc(NC3CC(=O)N(c4ccc(C)cc4C)C3=O)cc2)cc1 (stereo unspecified)	-2%	?
Cc1cccc(OCc2nnc(SCC(=O)Nc3ncc(C)s3)o2)c1	-14%	8%
CC(C)(C)NC(=O)Cn1c(=O)c(=O)n(Cc2ccccc2)c2ccc(Cl)cc21	2%	-6%
COc1ccc(NC(=O)Nc2ccc(OCC(=O)N3CCOCC3)cc2)cc1OC	-1%	11%
Cc1c(Br)cc(C(=O)N2CCCCCC2)c(C)c1C	-17%[0.501 µM]	-30%
CCC1(CC)Cc2ccccc2-c2nc(NCCO)[nH]c(=O)c21	-12%	-4%
CCOC(=O)C1CCCN(C(=O)CSc2ccccc2)C1 (stereo unspecified)	-1%	15%
Cc1ccsc1C(=O)OCc1nc2ccsc2c(=O)[nH]1	-2%	?
Cc1csc(NC(=O)NCC2CCCC(CNC(=O)Nc3nc(C)cs3)C2)n1 (stereo unspecified)	-5%	?
O=C(COc1ccc(Cl)cc1)NC(=S)Nc1ccccc1N1CCOCC1	-19%	8%
CC1(C)C2CCC1(C)C(OC(=O)C[n+]1ccccc1N)C2 (stereo unspecified)	2%	3%
CCC1CN(C(=O)N2CCC(C(=O)NCCN(CC)CC)CC2)c2ccccc2O1 (stereo unspecified)	-17%	7%
COc1cccc(/C=N/N=C(\N)c2nonc2N)c1O	0%	0.0065µM*
COc1cc(/C=N/NC(=O)c2ccc(C)nc2)cc([N+](=O)[O-])c1O	-15%	20%
Cc1cn2c(=O)c(C(=O)NCc3ccc4c(c3)OCO4)cnc2s1	-4%	-7%
COC(=O)c1ccc(CO/N=C/c2cccc([N+](=O)[O-])c2)cc1	-18%	4%
CC1CCCCC1NC(=O)c1cc(=O)[nH]c2ccccc12 (stereo unspecified)	-26%	-11%
COc1ccc(-c2nc3c4ccccc4ccn3c2C=O)cc1	-10%	-4%
O=S1(=O)CCN(C(CCO)c2cccc(C(F)(F)F)c2)CC1 (stereo unspecified)	-5%	9%
CCOc1cccc2c1OC1(C)CC2NC(=O)N1c1cccc(F)c1 (stereo unspecified)	-2%	11%

2 records drawn at random from the list so far:
SMILES	GCN5L2 inh	TDP1 cell CPT
CCC1CN(C(=O)N2CCC(C(=O)NCCN(CC)CC)CC2)c2ccccc2O1 (stereo unspecified)	-17%	7%
COc1cc(/C=C/C(=O)OCC(=O)NCc2cccs2)ccc1OC(F)F	-4%	-7%

Further records follow:
SMILES	GCN5L2 inh	TDP1 cell CPT
Cc1c(NC(=O)CSc2nnc(C(C)Oc3ccc(Cl)cc3)n2-c2ccccc2)c(=O)n(-c2ccccc2)n1C (stereo unspecified)	-4%	?
COc1ccc(-c2cn(CCO)c(-c3ccncc3)n2)cc1	-11%	9%
COc1cc(OC)c(OC)cc1CN1CCN(c2ccc(F)cc2)CC1	2%	?
COc1cccc2c1C(=O)CC2NC(=O)C(F)(F)F (stereo unspecified)	-1%	9%
Cc1ccc(NC(=O)C2CCCN2C(=O)NC2CCCCC2)cc1 (stereo unspecified)	0%	5%
COc1ccc(Cl)cc1NC(=O)CN1C(=O)CSc2ccc(S(=O)(=O)N3CCCC3)cc21	-7%	16µM*
Cc1ccc(C2=Nc3ccccc3N(CC(=O)Nc3cccc(F)c3)C(=O)C2)cc1C	-6%	?
CCOC(=O)/C(=C/c1c2ccccc2cc2ccccc12)NC(=O)c1ccccc1	-11%	?
CCN(Cc1ccccc1)S(=O)(=O)c1ccc(N2CCCCS2(=O)=O)cc1	-7%	?
CCN(CC)S(=O)(=O)c1cc(C(=O)Nc2cc(C)on2)ccc1Cl	-5%	-27%
O=C(CCS(=O)(=O)Cc1ccccc1)NCc1ccco1	-7%	-7%
Cn1cnnc1SCc1ccccc1[N+](=O)[O-]	-2%	-3%
CCN(Cc1ccccc1)C(=O)Cn1c(=O)n(CC(=O)N2CCCCC2)c(=O)c2sccc21	-26%	-4%
CC1=C(c2ccc(C)cc2)S(=O)(=O)NC1=NCc1cccc(F)c1	-6%	-21%
CCCc1cc(C(=O)Nc2cc(C)on2)no1	-8%	-3%
COC(=O)C1=C(C)N(C2CCCC2)C(=O)C1(NC(C)=O)C(F)(F)F (stereo unspecified)	-2%	4%
CC(=O)c1ccccc1NC(=O)COC(=O)C1=NN(c2ccccc2)C(=O)CC1	-20%	0%
CCn1c(=O)c(C(=O)Nc2ccc(C)cc2)c(O)c2ccccc21	4%	?
COc1ccccc1CC(=O)Nc1ccccc1C(=O)O	0%	-26%
COc1cccc(Cn2cnc3c(N)c(C)c(C)cc32)c1	-3%	-9%
COc1ccccc1N1CC(C(=O)Nc2ccc3c(c2)OCO3)CC1=O (stereo unspecified)	-3%	12%
N/C(=N\OC(=O)c1ccc(=O)n(Cc2ccc(Cl)cc2)c1)c1ccccn1	-1%	21µM*
COc1cc(S(=O)(=O)NCC2CCCO2)ccc1Br (stereo unspecified)	0%	12%
CCCc1c(NC(=O)Nc2ccc(F)cc2)cnn1-c1ccc(Cl)cc1	-5%	?
CC(NC(=O)C(=O)c1cn(CC(=O)N2CCOCC2)c2ccccc12)c1ccccc1 (stereo unspecified)	-1%	-12%
The list goes on.
SMILES	GCN5L2 inh	TDP1 cell CPT
CCc1ccccc1NS(=O)(=O)c1ccc2oc(=O)c3ncn(C)c3c2c1	-2%	-5%
CCSC1(SCC)N=C(N)C2(C#N)C(c3ccccc3)NC3=C(CCC3)C12C#N (stereo unspecified)	3%	-3%
c1ccc(OCCCn2nnc(-c3ccncc3)n2)cc1	1%	-4%
CN(C(=O)CSc1nnc(-c2ccccc2)c(-c2ccccc2)n1)C1CCS(=O)(=O)C1 (stereo unspecified)	3%	16µM*
COc1cc(/C=C/C(=O)Nc2nnc(CC(C)C)s2)cc(OC)c1OC	-6%	?
COc1cc(C(=O)Nc2ccc3c(c2)OCCO3)ccc1OC(F)F	-3%	-23%
CC(C)CN(CC(C)C)C(=O)C12CCC(C)(C(=O)C1)C2(C)C (stereo unspecified)	-11%	3%
OCCn1c(Cl)nc2ccccc21	2%	4%
Cc1cccc(CC(=O)Nc2cccc(-c3nc4cccnc4s3)c2)c1	-8%	-15%
O=C(COc1ccccc1)NCC(=O)Nc1ccc(S(=O)(=O)NCc2ccco2)cc1	-7%	-19%
O=C(Nc1ccc2[nH]c(=O)[nH]c2c1)c1cc(F)c(F)cc1Cl	-17%	23%
CCN(C(=O)c1cc2cc(OC)ccc2oc1=O)c1cccc(C)c1	-8%	-22%
N/C(Cc1cccc2ccccc12)=N\OC(=O)Cc1cccs1	-12%	-10%
CN(CC(=O)Nc1ccccc1C(F)(F)F)C(=O)CSc1nnnn1C	-10%	-11%
O=C(c1cc(-c2ccncc2)nc2ccc(Cl)cc12)N1CCN(C(=O)C2CCCO2)CC1 (stereo unspecified)	-26%	-10%
Cc1ccc(C(=O)C2CCN(CC(=O)N3CCN(c4ccc(F)cc4)CC3)CC2)cc1	-7%	?
CN(C)CCOc1cc(Cl)cc(Cl)c1	3%	-10%
COc1ccc(CN2CCN(Cc3ccccc3F)CC2)c(OC)c1	17%	-14%
COc1ccccc1NC(=S)NC(=O)C1CC1	-1%	1%
CCOC(=O)C1(C)C=C(Nc2cccc(OC)c2)C(=O)N1c1ccccc1 (stereo unspecified)	-13%	-9%
CC(NC(=O)c1ccccc1Br)c1nnc(SCC(=O)NC2CCCCC2)n1C (stereo unspecified)	-4%	3%
Cc1c(NS(=O)(=O)c2cccc([N+](=O)[O-])c2)c(=O)n(-c2ccccc2)n1C	-11%	0%
Cc1nc(-c2cccc(S(=O)(=O)N3CCC(C(=O)NCc4ccccc4Cl)CC3)c2)no1	-3%	18µM*
CCC(=O)c1ccc(N2CCCCC2)c(F)c1	2%	-2%
COc1ccc(CCn2c(=N)c(C(=O)N3CCN(C)CC3)cc3c(=O)n4ccccc4nc32)cc1	-2%	?

Single records (already shown). Order of screens: GCN5L2 inh | TDP1 cell CPT
`CCSC1(SCC)N=C(N)C2(C#N)C(c3ccccc3)NC3=C(CCC3)C12C#N` (stereo unspecified) reads 3% | -3%
`CC(C)CN(CC(C)C)C(=O)C12CCC(C)(C(=O)C1)C2(C)C` (stereo unspecified) reads -11% | 3%

The list continues:
SMILES	GCN5L2 inh	TDP1 cell CPT
Cc1cc2c(OCC(O)CNC(C)(C)C)cccc2[nH]1 (stereo unspecified)	-4%	-10%
Brc1ccc(-c2cn3cc(Cc4ccccc4)sc3n2)cc1	-6%	-16%
O=C(NCCO)c1cc2c([nH]c3ccccc32)c(-c2ccccc2)n1	-14%	?
CC(C)(C)OC(=O)NCc1ccc(CNC(=O)c2[nH]cnc2C(=O)NCC(=O)OCc2ccccc2)cc1	-9%	?
COc1cc(CC(=O)OCC(=O)N2CCN(C(=O)c3ccco3)CC2)cc(OC)c1OC	-5%	-3%
CCC(=O)N(CCc1ccccc1)Cc1cc2cccc(C)c2[nH]c1=O	-13%	-17%
O=C(Cn1cnc2ccccc2c1=O)Nc1ccc(N2CCOCC2)cc1	-5%	1%
COc1ccc(NC(=O)C(=O)N/N=C/c2cccnc2)cc1	-7%	8%
CCc1ccc(NC(=O)CNC(=O)Cn2ccc3ccccc3c2=O)cc1	-3%	-22%
CC(CCc1ccccc1)NC(=O)C(=O)N1CCOCC1 (stereo unspecified)	-6%	5%
CC(C)Cc1nnc(NC(=O)c2cc(-c3ccncc3)nc3ccccc23)s1	5%	-12%
O=c1c2ccccc2cnn1-c1ccc(Cl)nn1	-12%	-1%
Cc1oc2c(c(C)cc3oc(=O)c(CC(=O)NCCCO)c(C)c32)c1C	0%	-1%
CC(C)Cc1nnc(NC(=O)c2ccc3c(c2)OCCO3)s1	1%	-23%
COC(=O)c1ccc(OC(=O)CCN2C(=O)C3C4c5ccccc5C(c5ccccc54)C3C2=O)cc1 (stereo unspecified)	-2%	5%
Cc1ccc(S(=O)(=O)c2nc(S(=O)(=O)c3ccc(C)cc3)c(N3CCN(CCO)CC3)s2)cc1	-2%	23µM*
O=C(Cc1ccc(Cl)c(Cl)c1)N1CCOCC1	-5%	-11%
Cn1c(=O)cc(OCC(=O)NC2CCCCC2)c2ccccc21	-1%	-3%
CSc1nccn1CC(=O)Nc1ccc(F)cc1	-14%	5%
CC(C)NC(=O)Nc1ccc2c(c1)C(=O)N([C@H](C)CO)C[C@H](C)[C@@H](CN(C)C(=O)Nc1ccc3c(c1)OCO3)O2	0%	6%
COc1ccc(CC2(CO)CCN(S(=O)(=O)c3c(C)nn(C)c3Cl)CC2)cc1	-17%	-14%
CC(=O)O[C@H]1CC[C@@]2(C)[C@@H](CC[C@@H]3[C@@H]2CC[C@]2(C)[C@@H](C(C)(C)O)C[C@@H]32)C1	-2%	-28%
O=CN1CCC(=O)N(Cc2ccccc2)c2ccccc21	1%	-2%
CCOc1ccc(CCNC(=O)c2nnn(CC(=O)Nc3ccccc3C)c2N)cc1OCC	4%	-8%
CCc1nnc(NC(=O)CSc2nccn2-c2ccccc2)s1	-2%	-29%

Reformatted: results already given
| structure | GCN5L2 inh | TDP1 cell CPT |
| --- | --- | --- |
| CCC(=O)N(CCc1ccccc1)Cc1cc2cccc(C)c2[nH]c1=O | -13% | -17% |
| O=C(Cn1cnc2ccccc2c1=O)Nc1ccc(N2CCOCC2)cc1 | -5% | 1% |
| COc1ccc(NC(=O)C(=O)N/N=C/c2cccnc2)cc1 | -7% | 8% |
| CCc1ccc(NC(=O)CNC(=O)Cn2ccc3ccccc3c2=O)cc1 | -3% | -22% |

The results go on.
SMILES	GCN5L2 inh	TDP1 cell CPT
CCOC(=O)C(=CNc1cc(C)ccn1)C(=O)OCC	-1%	-4%
CC(C)N(C(=O)CSc1nnc(Cc2ccc3c(c2)OCO3)n1C)C(C)C	-8%	0%
COc1ccc(CC(=O)OCC(=O)N2CCN(S(=O)(=O)c3ccc(C)cc3C)CC2)cc1OC	1%	?
Cc1cc(C)n2nc(C(=O)N3CCN(c4ccc([N+](=O)[O-])cc4)CC3)nc2n1	-4%	-18%
O=C(O)C1CC(O)CN1S(=O)(=O)c1cccs1 (stereo unspecified)	2%	8%
CC(C)c1ccc(NC(=O)C2CCCN(S(=O)(=O)c3cccnc3)C2)cc1 (stereo unspecified)	-7%	16µM*
CCCC(c1nnnn1Cc1ccco1)N1CCN(c2ccccc2)CC1 (stereo unspecified)	2%	14%
O=C(NC(=S)Nc1ccc(S(=O)(=O)Nc2nccs2)cc1)c1ccc(Br)o1	-8%	-3%
CCOC(=O)CC1COCCN1Cc1cn(C)nc1-c1ccccc1F (stereo unspecified)	0%	-2%

Molecules shown so far that contain a cyano group, in the order listed:
SMILES	GCN5L2 inh	TDP1 cell CPT
CCOC(=O)C(/C=C(\C#N)C(=O)OCC)=C(/N)N1CCN(c2ccccc2)CC1	1%	-24%
CCSC1(SCC)N=C(N)C2(C#N)C(c3ccccc3)NC3=C(CCC3)C12C#N (stereo unspecified)	3%	-3%

Assay outcomes: PubChem, National Center for Advancing Translational Sciences (NCATS)
